TRPML1 agonist – activates the human TRPML1 channel; Q9GZU1; AID 624414; activation, % (concentration not given with the values); 410,000 tested, 0.12% active; TRPML1-expressing cells, Ca2+ dye fluorescence, FDSS; host cell line not named in the record; reference of the full effect not given here; in the data active = activation above about 50%; inconclusive = about 30% to 50%; inactive = below about 30%; also: 0% is about no effect; the text of the record puts the active cut at 80%
Target sequence (Q9GZU1 whole entry, looked up): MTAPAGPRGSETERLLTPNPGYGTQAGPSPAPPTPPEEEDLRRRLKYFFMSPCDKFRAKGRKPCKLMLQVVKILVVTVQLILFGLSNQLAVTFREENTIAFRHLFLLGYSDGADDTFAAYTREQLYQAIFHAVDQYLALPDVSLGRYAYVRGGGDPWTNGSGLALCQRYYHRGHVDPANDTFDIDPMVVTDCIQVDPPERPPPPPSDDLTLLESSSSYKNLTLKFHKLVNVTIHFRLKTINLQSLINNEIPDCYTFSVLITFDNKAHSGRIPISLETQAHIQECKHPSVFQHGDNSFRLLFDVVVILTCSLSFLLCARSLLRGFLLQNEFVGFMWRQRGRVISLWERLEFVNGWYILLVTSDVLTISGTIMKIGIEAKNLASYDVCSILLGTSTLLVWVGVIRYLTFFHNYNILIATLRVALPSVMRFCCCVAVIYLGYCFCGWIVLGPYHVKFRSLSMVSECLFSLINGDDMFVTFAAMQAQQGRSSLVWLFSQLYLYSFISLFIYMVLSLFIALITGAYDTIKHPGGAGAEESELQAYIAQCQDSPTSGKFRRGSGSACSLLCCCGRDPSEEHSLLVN
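In this qHTS format, compounds were pin-transferred onto Ca8-dye-loaded TRPML1-DL cells induced with Tet overnight, and intracellular Ca2+ fluorescence was recorded kinetically for 110 s after a 10 s baseline. A subsequent 4uM final 54-4 (EC80) addition followed by a second 110 s read served as the antagonist phase.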
TRPML1 inh – human mucolipin-1 channel inhibition. Q9GZU1. TRPML1-inducible cells, Ca2+ dye fluorescence, FDSS; hits give low values; inhibition of EC80 agonist-evoked calcium signal. activity change, negative = inhibition, % (test concentration not listed). 390,000 tested, 0.02% active; in the data active means activity change below about -50%; inconclusive means about -30% to -50%; inactive means above about -30%;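 also: stimulus is agonist 54-4 at its EC80 concentration; % is scaled to controls: 0 for no effect and ±100 for the full control effect; compound concentration not given in the record; the text of the record puts the active cut at -80%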
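Calcium fluorescence in TRPML1-DL cells induced overnight with Tet: a 110 s read after compound pin addition, then a 110 s antagonist read after challenge with 54-4 at 4 uM final (EC80).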
D2 ag – agonists of human D2 dopamine receptor (beta-arrestin); P14416; DiscoveRx PathHunter D2 beta-arrestin, luminescence, 90 min; 100% = 57 uM dopamine signal; activation, % (no concentration beside the values); 360,000 tested, 0.084% active; AID 624465; in the data active = activation above about 40%; inconclusive = about 15% to 40%; inactive = below about 15%; also: compound concentration not given in the record; the text of the record calls up to 30% inactive
Target sequence (P14416 whole entry, looked up): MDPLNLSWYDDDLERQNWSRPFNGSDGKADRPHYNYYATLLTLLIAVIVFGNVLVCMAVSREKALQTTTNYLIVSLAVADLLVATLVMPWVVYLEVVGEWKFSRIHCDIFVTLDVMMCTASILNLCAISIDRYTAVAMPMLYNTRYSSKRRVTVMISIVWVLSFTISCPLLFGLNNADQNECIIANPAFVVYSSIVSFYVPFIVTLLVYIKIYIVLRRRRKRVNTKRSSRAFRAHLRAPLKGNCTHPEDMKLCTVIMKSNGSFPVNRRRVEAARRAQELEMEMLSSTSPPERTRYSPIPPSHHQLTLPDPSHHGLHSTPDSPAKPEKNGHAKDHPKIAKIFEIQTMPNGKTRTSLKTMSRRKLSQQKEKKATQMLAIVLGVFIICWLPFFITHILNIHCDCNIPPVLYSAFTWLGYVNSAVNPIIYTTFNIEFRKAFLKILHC
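Agonist mode: compounds alone added to overnight-plated D2 PathHunter cells for 90 min at 37 C, with 57 uM final dopamine (EC100) defining full response. Beta-arrestin recruitment detected by chemiluminescent reagent, read after 1 h at ambient temperature.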
PINK1 expr mod – PINK1 expression modulation; Potency, µM (doses to about 76.6 µM), inactives show at the top dose activation (PINK1 increase), actives largely listed as activators; AID 624263; PINK1 immunofluorescence, high-content cytometry, 24 h; 410,000 tested, 0.2% active; active = well fitted activation curve with a large enough effect; inconclusive = small, poorly fitted or top-dose-only effect; inactive = flat fitted curve, though single readings scatter; cell line not stated here;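 also: potency is read from the fitted curve at half-maximal effect; % of control where 0% means no effect; nearly all actives have a fitted effect of over 65% in size; a mitochondrial uncoupler was the plate control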
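Readout is PINK1 immunofluorescence, quantified alongside mitochondrial, cell and nuclear markers by laser-scanning microplate cytometry. Cells from a stable line were exposed to compound titrations (5 concentrations) for 24 hours, with CCCP controls.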
Six1-Eya2 inh – inhibitors of human Six1/Eya2 interaction; activity change, % (concentration not given with the values); AlphaScreen GST-Six1/His-Eya2 binding, biochemical; hits give low values; control for the full effect not named in the record; Q15475+O00167; 360,000 tested, 0.56% active; AID 651725; in the data active = activity change below about -65%; inconclusive = about -30% to -65%; inactive = above about -30%; also: % is scaled to controls: 0 for no effect and ±100 for the full control effect
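AlphaScreen luminescence read after one hour at 37 °C in darkness. Pin-transferred compounds met GST-Six1 and His-Eya2 protein (5X stock 250 nM/500 nM) plus glutathione donor and Ni-chelate acceptor beads (5X, 50 ug/mL).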
CtBP-E1A blk – inhibitors of CtBP/E1A interaction; activity change, % (concentration not given with the values); AID 651724; AlphaScreen GST-E1A/His-CtBP binding, 1536-well; hits give low values; control for the full effect not named in the record; 340,000 tested, 0.49% active; in the data active means activity change below about -65%; inconclusive means about -30% to -65%; inactive means above about -30%; also: % is scaled to controls: 0 for no effect and ±100 for the full control effect
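In 5 uL wells, 23 nL compound meets equimolar GST-E1A and His-CtBP (5X stock 125 nM each) for 2 h, 37 °C. Beads (5X, 50 ug/mL) then 1 h, 37 °C, dark.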
* hit, by the source's call; ? = inconclusive; nt = not tested or not shown; & = joins results of further samples; [ ] = dose if it differs, or a comment.

Each structure is followed by: TRPML1 agonist, TRPML1 inh, D2 ag, PINK1 expr mod, Six1-Eya2 inh, CtBP-E1A blk
- CCc1ccccc1Oc1nc2cc(-c3cccc(OC)c3)sc2c(=O)n1C
  -0.5, nt, 6.0, 4.8%, 8, 5
- CC(=O)Nc1cc(-c2cccc(CO)c2)cn2c(-c3cccc(C(F)(F)F)c3)cnc12
  -0.8, nt, -5.0, 3.7%, 1, 4
- CCN(CC)CCCn1c(C)cc2c(c1=O)C(c1cccc(Cl)c1)C(C#N)=C(N)O2 (configuration not stated)
  -0.6, 3, -2.2, -0.2%, 13, -4
- COc1ccc(C)cc1NC(=O)CN1CCN(c2ccc(F)cc2)CC1
  -0.9, -23, -4.8, -0.2%, -4, -3
- CC(=O)N1CCN(C(=S)Nc2ccc(Oc3ccccc3)cc2)CC1
  0.0, -12, 6.8, 3.3%, -11, -13
- COc1cccc(NC(=O)C2C3C=CC4(O3)C2C(=O)N(CCCN2CCCC(C)C2)C4C(=O)NC2CCCCC2C)c1 (configuration not stated)
  0.2, 2, -2.0, 0.9%, -3, 0
- O=S(=O)(Nc1cccnc1)c1cccnc1
  1.4, 9, -4.4, -2.9%, -18, 0
- COc1cc(/C=C/C(=O)OCC(=O)Nc2cc(S(=O)(=O)N(C)C)ccc2Cl)ccc1O
  0.9, 12, -1.9, 21%, -17, -4
- O=c1c2cc3c(cc2n(Cc2ccc(F)cc2)c(=O)n1Cc1nc(-c2ccccc2)no1)OCO3
  2.4, 3, nt, 2.0%, nt, nt
- Cc1nnc(N/N=C/c2ccc(-c3ccccc3F)o2)n1N
  0.6, -3, 14, 2.8%, -20, -27
- COc1ccc(OC)c(NC(=O)CCn2c(=S)[nH]c3ccccc3c2=O)c1
  -0.9, 44, -0.9, 4.4%, 1, 4
- O=C(NC(=S)NCc1cccnc1)c1ccc([N+](=O)[O-])cc1
  0.6, 3, ?, -1.2%, 6, nt
- COc1ccc(N(C(=O)c2snc(C(N)=O)c2N)C(C(=O)NC2CCCC2)c2cc(OC)ccc2OC)c(OC)c1 (configuration not stated)
  0.4, 16, -6.0, -1.4%, -11, -5
- CCc1ccc(NC(=O)Nc2cnccn2)cc1
  -0.3, 7, -1.7, 0.1%, 0, -6
- Cc1cc(C)cc(Cn2c3ccc(NC(=O)NCc4ccc(F)cc4)cc3c(=O)n2C)c1
  0.1, 0, 9.5, 6.6%, -5, 2
- CCOC(=O)c1[nH]c2ccccc2c1NC(=O)CC
  -0.3, -6, 3.4, 0.7%, 13, -23
- COc1ccccc1Nc1nc(-c2ccccc2F)nc2ccccc12
  0.9, 10, nt, 7.7%, nt, nt
- N#CCCN(C(=O)COC(=O)C1=NNC(=O)CC1)c1ccccc1
  0.9, 12, -4.1, 6.2%, -3, -9
- COc1ccc(C(=O)NNC2=NC(C)(C)Cc3cc(C)c(C)cc32)cc1
  -0.8, -2, -2.5, 13%, 4, 2
- CCOc1ccccc1N(C)C(=O)c1c2c(nc3ccccc13)C(=O)N(C1CCCCC1)C2
  1.9, 3, nt, 0.3%, nt, nt

Random excerpt: 2 entries already listed.
Each structure is followed by: TRPML1 agonist, TRPML1 inh, D2 ag, PINK1 expr mod, Six1-Eya2 inh, CtBP-E1A blk
- CCOC(=O)c1[nH]c2ccccc2c1NC(=O)CC
  -0.3, -6, 3.4, 0.7%, 13, -23
- CCc1ccc(NC(=O)Nc2cnccn2)cc1
  -0.3, 7, -1.7, 0.1%, 0, -6

Remaining list, next part:
Each structure is followed by: TRPML1 agonist, TRPML1 inh, D2 ag, PINK1 expr mod, Six1-Eya2 inh, CtBP-E1A blk
- O=C(Nc1ccc(N2CCOCC2)cc1)c1cc(F)c(F)cc1Cl
  -0.6, 2, -3.0, -1.3%, 20, 2
- CC1CCCC(C)N1CC(O)COCc1ccccc1 (configuration not stated)
  -0.1, -20, -5.1, -0.4%, 7, -15
- C[C@H]1CN([C@@H](C)CO)C(=O)c2cc(Br)cnc2O[C@@H]1CN(C)S(C)(=O)=O
  0.9, 1, 1.8, 2.7%, 7, -22
- CSCCC(C(=O)N1CC2(C)CC1CC(C)(C)C2)N1C(=O)c2ccccc2C1=O (configuration not stated)
  7.0, -14, -1.7, -1.3%, -5, -8
- O=C(NCC1CCCO1)c1ccc(S(=O)(=O)Nc2ccccc2F)cc1 (configuration not stated)
  1.0, 12, -1.8, -0.2%, 9, 4
- COc1cccc(CN(C)C(=O)c2ccc3c(=O)n4c(nc3c2)CCC4)c1OC
  0.2, 4, 1.5, -0.6%, -1, -3
- C[C@H]1CN([C@@H](C)CO)C(=O)CCCn2nncc2CO[C@H]1CN(C)C(=O)c1cc(-c2ccccc2)on1
  nt, nt, -0.3, 0.7%, 4, -2
- O=c1oc2ccccc2c(Nc2ccc(Cl)cc2)c1[N+](=O)[O-]
  5.4, 17, -12, ?, -1, -13
- CCOC(=O)c1ccc(NC(=O)Nc2cccc(OCc3cc(=O)n4ccc(C)cc4n3)c2)cc1
  0.4, -9, nt, 2.2%, nt, nt
- Cc1cccc(OCCCCNCc2ccccc2)c1
  -0.7, 1, -4.4, 5.2%, 5, nt
- O=c1oc2cc(O)ccc2c2oc3cc(O)ccc3c12
  -0.7&2.1, 34&-2, -3.7, 0.3%, -13, ?
- O=C(COC(=O)c1ccc(O)cc1O)NC(=O)Cc1ccccc1
  29, -7, -6.5, 12%, 4, -3
- Cc1c(C)n(CCc2c[nH]c3ccccc23)ccc1=O
  -1.1, -8, 5.3, -0.3%, 10, -9
- COCCC(=O)N1CCC(Oc2ccc(C(=O)NCc3cccc(C)n3)cc2)CC1
  0.9, -12, 0.4, -2.1%, 9, -1
- CCOC(=O)c1[nH]c(COC(=O)c2ccccc2NC(=O)c2ccco2)c(C(=O)OCC)c1C
  0.0, -3, -2.9, 2.1%, -15, -13
- CCOC(=O)C(C)Oc1ccc(=O)n(-c2ccccc2)n1 (configuration not stated)
  2.3, 18, -1.1, 1.2%[38.3 µM], 4, 4
- COc1ccc(C2c3c(-c4ccc(F)cc4)n[nH]c3C(=O)N2c2ccccc2)cc1OC (configuration not stated)
  -0.3, 51, nt, -0.8%, nt, nt
- CCOC(=O)NC(=S)c1ccc[nH]1
  -0.6, 13, -5.3, 3.5%, 9, -10
- COc1ccccc1C(=O)C1CCCN(C(=O)c2ccccn2)C1 (configuration not stated)
  -0.8, 10, -5.2, 2.8%, -1, 5
- CCCCC(=O)NNC(=S)NC(=O)c1ccc(C)cc1
  16, 22, -7.9, 1.8%, -4, -3
- C[N+]1(CC(O)c2ccccc2)CCCCCC1 (configuration not stated)
  -0.7, 8, -5.3, 0.9%, 8, nt
- Cc1nc(C(C)N(C)Cc2c(C(=O)N3CCCCC3)nc3c(C)cccn23)c(C)s1 (configuration not stated)
  -0.1, -5, -6.4, 0.9%, 4, 0
- Nc1nccc(/C=C/c2c(F)cccc2Cl)n1
  3.2, -11, 1.3, 0.1%, 23, 0
- O=C(Nc1cccc(Cl)c1)Nc1ccc2c(c1)C(=O)OC2
  -0.1, 10, -0.1, 2.5%, 6, 9
- COc1cc(NC(=O)CN2CC(c3ccccc3)CC2=O)cc(OC)c1 (configuration not stated)
  0.4, -5, 0.8, 0.6%, 0, 1
- Cc1nc2nc(-c3cccs3)cn2nc1C
  3.1, -20, 0.2, 1.1%, -12, -15
- Fc1cc(Cl)c(OCc2noc(-c3ccsc3)n2)c(Cl)c1
  -0.8, -2, -4.9, 5.9%, 14, nt
- O=C(NCCCn1ccnc1)c1ccc2c(c1)OCCO2
  -0.6, -17, -3.9, -3.6%, 3, 4
- Cc1ccc(Nc2nc3nonc3[nH]c2=O)cc1C
  -0.4, 11, -4.2, ?, -7, -7
- O=C(Nc1ccc2nc(-c3ccccc3)[nH]c2c1)c1cccs1
  0.2, -9, 2.7, 0.6%[38.3 µM], -27, 9
- CCc1cccc(NC(=O)c2cc3c(s2)-c2ccccc2OC3)c1
  2.1, 1, nt, 2.8%, nt, nt
- Cc1onc(-c2ccccc2Cl)c1C(=O)Nc1ccccc1C(N)=O
  -0.9, -7, 0.0, 1.9%, 14, -1
- CN(C)S(=O)(=O)c1cccc(NC(=O)CSc2ncnc3ccccc23)c1
  -0.7, -19, 13, -2.2%, -10, 0
- CCOc1cc(NC(=O)CCl)c(OCC)cc1NC(=O)CCl
  0.9, -1, 1.1, 7.3%, 2, 5
- NC(=O)COC(=O)c1ccc2c(c1)C(=O)N(Cc1ccco1)C2=O
  1.2, -13, 0.9, 2.6%, -9, 6
- CCCCCCCC#Cc1ccccc1/C=N/S(=O)c1ccc(C)cc1 (configuration not stated)
  -0.2, -12, -0.2, 9.4%, 17, nt
- Nn1cc(-c2ccccc2)nc1SCC(=O)Nc1cccc(S(N)(=O)=O)c1
  1.3, -8, 1.4, -0.2%, 1, -1
- CCc1ccccc1NC(=O)COc1ccc(N2CC(C(N)=O)CC2=O)cc1 (configuration not stated)
  0.7, 34, -4.7, 0.5%, 16, 0
- CCCC(=O)c1ccc(N2CCC(C)CC2)c(F)c1
  4.7, 5, -1.3, 7.6%, 16, 11
- Cc1cc(C(=O)N2CCN(c3ncccn3)CC2)sc1-c1ccccc1
  1.4, 4, 1.0, -1.3%[38.3 µM], 3, 6
- Cc1ccc(C(=O)CSc2nnc(COc3ccc(C#N)cc3)n2-c2ccccc2)cc1
  0.6, 5, -3.5, 4.6%, -3, 0
- CSc1ccccc1NC(=O)COC(=O)c1ccc(O)cc1
  -0.7, 23, 1.1, -1.0%, 2, 5
- COC(=O)C1=C(c2ccccc2)c2ccccc2S(=O)(=O)N1CC(=O)Nc1ccccc1Cl
  2.1, -10, nt, -0.9%, nt, nt
- COc1ccc(F)cc1-c1cc(C(=O)Nc2cccnc2)[nH]n1
  -0.4, nt, -1.3, 0.6%, -2, 2
- O=C1COc2ccc(S(=O)(=O)NCc3ccccc3)cc2N1
  2.2, 12, -0.8, 1.9%, -2, 0
- CCOC(=O)C1(Cc2ccccc2)CCCN(Cc2cnn(CC)c2)C1 (configuration not stated)
  0.3, -17, -1.3, 1.1%, 3, 0
- CCOc1c2ccc(C(=O)NCCc3ccc(C)cc3)cc2nn1CC
  0.7, -13, -1.0, 1.4%, 2, 5
- Cc1ccccc1C(=O)Nc1nnc(SCc2cc(=O)c3c(C)ccc(C)c3[nH]2)s1
  -0.1, -11, nt, 25%, nt, nt

Single values from above.
`O=C1COc2ccc(S(=O)(=O)NCc3ccccc3)cc2N1` in PINK1 expr mod → 1.9%
`Cc1ccccc1C(=O)Nc1nnc(SCc2cc(=O)c3c(C)ccc(C)c3[nH]2)s1` in TRPML1 agonist → -0.1
`CCOc1c2ccc(C(=O)NCCc3ccc(C)cc3)cc2nn1CC` in D2 ag → -1.0
`COc1ccc(F)cc1-c1cc(C(=O)Nc2cccnc2)[nH]n1` in CtBP-E1A blk → 2
`CSc1ccccc1NC(=O)COC(=O)c1ccc(O)cc1` in TRPML1 inh → 23
`COC(=O)C1=C(c2ccccc2)c2ccccc2S(=O)(=O)N1CC(=O)Nc1ccccc1Cl` in TRPML1 inh → -10
`CCOC(=O)C1(Cc2ccccc2)CCCN(Cc2cnn(CC)c2)C1` (configuration not stated) in PINK1 expr mod → 1.1%

Compound activity as filed in PubChem BioAssay.
